Screens: PubChem, Broad Institute
rRNA inh HTS = selective bacterial rRNA inhibition in E. coli; hit rate 1.6% among 350,000; GFP signal change (wild-type ribosome), % (concentration not given with the values); E. coli WT GFP vs humanized-ribosome RFP mutants, fluorescence, 24 h; hits give low values; DMSO median 0, no signal -100;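 active = significant combined selectivity score with lowered wild-type GFP, culture density cut under 30%, mutant RFP and density less affected; inactive = any of these conditions unmet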; also: one replicate is shown; some compounds called inactive have numbers as strong as hits
Calb FLC = affects C. albicans growth with fluconazole; growth inhibition, % (concentration not given with the values); AID 1979; hit rate 0.57% among 300,000; C. albicans CaCi-2 (fluconazole-resistant clinical isolate) + fluconazole, Alamar Blue growth, 48 h;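 active = most replicates above 75%; inconclusive = exactly half above 75%; inactive = most below 75%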;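 also: all wells also contain fluconazole at 8 µg/ml as a sub-toxic cotreatment; 0% = median of DMSO wells and 100% = median of geldanamycin control wells; wells of about 8 µL received 7.5 nL stock; the first replicate is given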
FGF22 binding = shifts melting point of recombinant human FGF22; Q9HCT0; recombinant FGF22 thermal shift, SYPRO orange fluorescence; percent of sucrose octasulfate shift, DMSO zero; calls only at 9.99 µM; hit rate 1.5% among 340,000;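 active = melting point raised past a set limit in the mean and every replicate; inconclusive = no clear call; three in four hits are not shown here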
Target sequence (Q9HCT0 whole entry, looked up): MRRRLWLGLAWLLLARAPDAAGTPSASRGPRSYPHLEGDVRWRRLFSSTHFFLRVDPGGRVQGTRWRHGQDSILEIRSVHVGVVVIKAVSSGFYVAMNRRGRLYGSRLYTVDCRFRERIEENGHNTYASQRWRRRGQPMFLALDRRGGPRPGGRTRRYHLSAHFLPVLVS
RanGTP-Imp inh = inhibitors of RanGTP-importin-beta interaction, primary screen, biochemical, FRET, CFP-Ran, YFP-importin-beta, homogeneous; hit rate 1.1% among 300,000; inhibition, % (no concentration beside the values); cell-free CFP-Ran/YFP-importin-beta FRET ratio;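 active = most replicates above 15%; inconclusive = exactly half above 15%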;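 also: 0% = DMSO wells and 100% = Ran loaded with GDP instead of GTP; wells of about 40 µL received 100 nL stock; the first replicate is given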
Beta cell apopt = beta cell apoptosis inhibition; INS-1E cytokine-induced death, ATP luminescence, 48 h; percent of positive-control rescue, neutral wells zero; protection from apoptosis, % (no concentration beside the values); hit rate 0.8% among 300,000; AID 435005;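 active = all replicates at 75% or more, or half of them and the mean; inconclusive = half reach 75% but not the mean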;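 also: 0% = cytokine-treated negative control wells and 100% = positive control rescue; higher means more ATP so stronger rescue from cytokine killing; wells of about 40 µL received 100 nL stock; the first replicate is given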
T cruzi repl = blocks replication of Trypanosoma cruzi | hit rate 1.4% among 300,000 | AID 1885 | inhibition, % (no concentration beside the values) | T. cruzi beta-gal in NIH3T3, luminescence, 90 h;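 active = mean inhibition across valid replicates above about 55%, limit read from the data; inconclusive = mean below that limit but half or more replicates reach it; inactive = mean below it, under half of replicates reach it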;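 also: signal also drops with host cell toxicity which is not excluded here; 0% = plate median of DMSO wells and 100% = zero luminescence signal; higher percent means less beta-gal luminescence so fewer parasites; stock transfer was 50 nL into about 50 µL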
AF4-AF9 inh = inhibitors of human MLL-AF4/AF9 interaction; inhibition, % at 10 µM; AlphaScreen, biotin-AF4 peptide binding to FLAG-AF9; hit rate 0.47% among 350,000; P42568;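 active = every replicate reaching a set inhibition limit, whatever the replicate mean, cut at about 25% in these data; inconclusive = mean inhibition reaches that limit but some replicates miss it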;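 also: 0% = plate neutral control median and 100% = total signal loss; the record names both 10 and 1 µM as test concentration; the first replicate is given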
Target sequence (P42568 whole entry, looked up): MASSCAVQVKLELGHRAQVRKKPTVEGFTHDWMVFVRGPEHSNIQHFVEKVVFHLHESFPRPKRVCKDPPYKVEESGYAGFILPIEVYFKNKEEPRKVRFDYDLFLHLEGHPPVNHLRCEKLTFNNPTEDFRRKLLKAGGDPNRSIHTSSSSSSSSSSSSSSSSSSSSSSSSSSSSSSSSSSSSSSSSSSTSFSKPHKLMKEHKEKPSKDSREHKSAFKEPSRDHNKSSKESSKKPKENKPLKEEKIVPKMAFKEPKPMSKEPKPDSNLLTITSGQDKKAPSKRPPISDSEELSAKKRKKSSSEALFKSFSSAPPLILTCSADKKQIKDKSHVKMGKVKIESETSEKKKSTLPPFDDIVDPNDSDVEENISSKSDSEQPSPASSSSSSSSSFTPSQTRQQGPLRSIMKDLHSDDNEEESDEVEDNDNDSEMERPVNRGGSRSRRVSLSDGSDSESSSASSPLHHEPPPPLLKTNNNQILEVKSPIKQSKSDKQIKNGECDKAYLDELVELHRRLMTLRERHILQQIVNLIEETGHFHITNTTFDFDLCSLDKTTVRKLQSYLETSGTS
ALR H2O2 inh = inhibitors of human sulfhydryl oxidase ALR; P55789; inhibition, % (no concentration beside the values); AID 485317; purified ALR, DTT oxidation, H2O2 HRP-luminol luminescence; hit rate 3.8% among 290,000;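 active = mean and each replicate at 75% or more; inconclusive = only one of the two met; inactive = neither met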;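 also: stock transfer was 7.5 nL into about 7.5 µL; 0% = neutral wells and 100% = wells with inactivated enzyme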
Target sequence (P55789 whole entry, looked up): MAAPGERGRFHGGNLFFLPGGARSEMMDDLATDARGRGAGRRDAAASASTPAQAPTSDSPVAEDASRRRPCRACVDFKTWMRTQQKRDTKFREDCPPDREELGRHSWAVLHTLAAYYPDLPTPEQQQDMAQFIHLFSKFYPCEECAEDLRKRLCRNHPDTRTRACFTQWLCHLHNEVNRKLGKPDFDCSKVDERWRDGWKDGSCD
rRNA inh HTS OD600 = also measured in rRNA inh HTS; calls as there; OD600 change, %; measured here: OD600 growth;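 optical density of the mix in the first replicate; 0 = DMSO median and -100 = no signal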
rRNA inh HTS RFP = second read-out of rRNA inh HTS, no call of its own (marks repeat the call); RFP signal change, %; measured here: RFP humanized mutant strains;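 first replicate; 0 = DMSO median and -100 = no signal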
An asterisk follows results filed as active; i = inactive; u = inconclusive; x = no result given. A portion of the library; rates above refer to the full screens.

item | SMILES | rRNA inh HTS | rRNA inh HTS OD600 | rRNA inh HTS RFP | Calb FLC | FGF22 binding | RanGTP-Imp inh | Beta cell apopt | T cruzi repl | AF4-AF9 inh | ALR H2O2 inh
1 | CN(CCO)S(=O)(=O)c1ccc2c(c1)C(=NO)c1cc(S(=O)(=O)N(C)CCO)ccc1-2 | -27* | -21* | 6.6* | x | i | x | 1 | x | 0.3 | 8
2 | Cc1cc(OCCSc2nnc(-c3cccs3)n2C)ccc1Cl | x | x | x | 10 | x | 1.4 | 3 | 11 | x | -3
3 | COc1ccccc1NC(=O)CSc1nnc(NC(=O)C2CC2)s1 | 3 | 4 | -0.1 | -11 | i | 1.9 | -3 | -6 | 0.2 | -2
4 | COc1ccc(OC)c(N2C(=O)CC(Cc3ccc(C)cc3)C2=O)c1 (stereo not drawn) | x | x | x | 10 | x | -3.8 | 2 | -11 | x | -1
5 | c1coc(CNc2ncnc3[nH]ncc23)c1 | 19 | 8 | 3.3 | 0 | i | 1.3 | -4 | -1 | 2.4 | -13
6 | COCCc1nc2ccc(C(=O)N(C)Cc3cccc(-n4nc(C)cc4C)c3)cc2o1 | 5 | -1 | -1.4 | -8 | i | -4.3 | 0 | 16 | -0.8 | -9
7 | CCN1C(=O)/C(=C\N(C)C)NC1=S | 16 | 15 | 0.2 | -1 | i | 0.9 | 5 | -13 | 0.8 | 98*
8 | C[n+]1cccc(/C=N/NC(=O)CC23CC4CC(CC(C4)C2)C3)c1 | 10 | 2 | -3.8 | -6 | i | -0.6 | -2 | -13 | -0.9 | 0
9 | CN1OC(COC(=O)c2ccc(Cl)cc2Cl)CC1c1ccccc1 (stereo not drawn) | x | x | x | 19 | x | -1.5 | 0 | -10 | x | -11
10 | N#C/C(=C\c1c(Oc2ccccc2Cl)nc2ccccn2c1=O)C(=O)NC1CCS(=O)(=O)C1 (stereo not drawn) | 1 | 6 | -2.6 | 4 | i | 91* | -12 | -11 | -14 | 12
11 | O=C(/C=C/c1ccccc1[N+](=O)[O-])NCc1cccnc1 | -1 | 5 | 8.3 | 26 | i | 0.2 | -2 | 3 | -3.9 | x
12 | COc1ccc(C)cc1NC(=O)CCN1CCN(c2ccccc2F)CC1 | -2 | 1 | 0.0 | -8 | i | -1.8 | -3 | -5 | 5.1 | 31
13 | CCOC(=O)C(C)Sc1nc2c(cnn2-c2ccc(F)cc2)c(=O)[nH]1 (stereo not drawn) | 3 | 11 | -1.3 | 13 | i | -3.1 | -1 | 2 | -2.4 | -12
14 | COC(=O)CNC(=O)CCCCC(=O)NCC(=O)OC | x | x | x | 21 | x | 4.4 | -2 | -10 | x | 4
15 | O=C(CSc1nnc(-c2ccc(C(F)(F)F)cn2)s1)c1ccc(Cl)cc1 | 9 | 12 | -0.7 | -2 | i | -1.0 | 3 | -22 | x | x
16 | Cc1cc2c(cc1C)-c1nnnn1C(C)(C)C2 | x | x | x | 3 | x | 3.1 | 5 | 10 | x | 3
17 | Cc1c(CC(=O)NCCC(=O)O)c(=O)oc2cc3occ(-c4ccccc4)c3cc12 | -22 | -37 | -6.7 | 0 | i | 0.2 | -6 | -3 | -2.5 | -5
18 | CN(Cc1ccccc1)c1nc2c(c(=O)[nH]c(=O)n2C)n1Cc1ccccc1 | 0 | -5 | -4.9 | 8 | x | 1.9 | 6 | 13 | x | -20
19 | CCOc1ccc2c(O)csc2c1 | x | x | x | x | x | -4.7 | -6 | 0 | x | -28
20 | Cc1cnc(C(=O)Nc2ccc(S(=O)(=O)NCC(C)C)cc2)cn1 | 22 | 21 | 0.8 | -26 | i | u | -4 | 2 | -0.6 | -8

Results in sequence from the list:
Nos. 11–20 in FGF22 binding: i, i, i, x, i, x, i, x, x, i
Nos. 11–20 in rRNA inh HTS OD600: 5, 1, 11, x, 12, x, -37, -5, x, 21

(more compounds)
item | SMILES | rRNA inh HTS | rRNA inh HTS OD600 | rRNA inh HTS RFP | Calb FLC | FGF22 binding | RanGTP-Imp inh | Beta cell apopt | T cruzi repl | AF4-AF9 inh | ALR H2O2 inh
21 | Cc1cccc(C)c1N1CCN(c2nc(N(C)C)oc(=O)c2C#N)CC1 | x | x | x | 4 | x | 1.1 | -1 | 9 | x | -1
22 | CCOc1ccccc1N1CCN(CC(=O)c2c(N)n(C)c(=O)n(C)c2=O)CC1 | 17 | 20 | 0.1 | 23 | x | 5.9 | -2 | -3 | 0.4 | -6
23 | CCCCOP(=O)(c1ccc(N(C)C)cc1)C(O)c1cccnc1 (stereo not drawn) | x | x | x | -5 | x | -0.6 | 0 | -7 | x | -13
24 | CCOC(=O)c1c(NC(=O)COC(=O)c2ccc(Cl)nc2)sc(C(=O)N(C)C)c1C | 0 | 5 | -0.5 | -1 | i | x | -1 | -10 | 3.3 | -2
25 | Cc1ccc(S(=O)(=O)n2nc(C)c(S(=O)(=O)N3CCOCC3)c2C)cc1 | 6 | 8 | -3.9 | 0 | i | -0.6 | -3 | 3 | -2.3 | -3
26 | Cc1cc(N2CCCC2)nc2ccccc12 | 19 | 2 | -5.2 | -5 | i | 5.1 | 5 | 3 | -1.7 | -5
27 | COc1ccc(C2C(C#N)=C(N)Oc3n[nH]c(C)c32)cc1CSc1ccccn1 (stereo not drawn) | x | x | x | -5 | x | -1.7 | -6 | -5 | x | 23
28 | COCCn1nnnc1C(c1ccccc1OC)N1CCN(c2ccccc2F)CC1 (stereo not drawn) | x | x | x | 23 | x | 5.3 | 5 | -9 | x | 4
29 | Cc1cccc(C(C)C)c1NC(=O)c1ccc(OCC2CCCO2)cc1 (stereo not drawn) | 16 | 6 | 3.5 | x | i | x | -9 | x | -0.9 | -12
30 | Cc1ccc(O)c(NC(=O)c2cccc(S(=O)(=O)N3CCCCC3)c2)c1 | x | x | x | 0 | x | -3.5 | 2 | 10 | x | 43
31 | O=C1NCCSC1c1ccccc1 (stereo not drawn) | 8 | 7 | 3.3 | -9 | i | 0.1 | x | -15 | -0.5 | -1
32 | CC(=O)N1N=C(c2ccc(C)cc2)OC1c1ccc(C(C)C)cc1 (stereo not drawn) | x | x | x | 3 | x | 2.3 | -2 | 10 | x | -4
33 | C/C(=N/NC(=O)CNC(=O)c1cccs1)c1ccco1 | 1 | 8 | -1.8 | -1 | i | 2.4 | 3 | 5 | 1.5 | -4
34 | O=c1[nH]c2ccc(S(=O)(=O)N3CCCC3)cc2[nH]1 | 8 | 10 | 0.3 | -6 | i | -1.9 | 0 | -6 | -3.2 | -3
35 | CCCCNC(=O)CCn1c(=S)[nH]c2cc3c(cc2c1=O)OCO3 | x | x | x | -8 | x | 8.9 | 3 | -11 | x | 5
36 | CCC1CCCCN1C1Sc2ccc(C(=O)OC)cc2NC1=O (stereo not drawn) | x | x | x | -5 | x | -2.9 | -3 | -13 | x | 2
37 | COc1ccc(C(=O)OCC(=O)N(C)C2CCS(=O)(=O)C2)cc1S(=O)(=O)N1CCCc2ccccc21 (stereo not drawn) | -17 | -18 | -0.6 | -3 | i | 6.1 | x | -2 | -0.5 | -11
38 | FC(F)(F)c1cc(Cl)c2nc(-c3ccccc3)cn2c1 | x | x | x | 12 | x | 2.5 | 3 | 4 | x | -2
39 | O=C(N/N=C/c1ccc(Cl)cc1)c1sccc1OCc1ccc(F)cc1 | x | x | x | 2 | x | 4.3 | 20 | 29 | x | 9
40 | O=C1COc2ccc(C(=O)CSc3nnc(Cc4cccs4)n3-c3ccccc3)cc2N1 | x | x | x | 10 | x | 1.7 | -10 | 17 | x | x
41 | O=C(C(=O)N1CCN(C(=O)c2ccco2)CC1)c1c[nH]c2ccccc12 | 12 | 2 | -0.9 | -19 | i | 2.2 | -15 | -19 | -0.9 | -5
42 | Cc1cccc(N2CCN(C(=O)c3cccc(N4C(=O)C5C6C=CC(C6)C5C4=O)c3)CC2)c1C (stereo not drawn) | 7 | -24 | 1.8 | -2 | i | 2.5 | 4 | -1 | 1.3 | 2
43 | Cc1ccc(N/C=C/C(=O)c2ccco2)c(O)c1 | 9 | -10 | -3.8 | -7 | i | -40 | 3 | -4 | x | -8
44 | CC1=C(C(=O)O)N2C(=O)C(NC(=O)c3ccc(F)cc3)C2SC1 (stereo not drawn) | 12 | 1 | 7.9 | x | i | x | -2 | x | -13 | 3
45 | CCC(=O)N1CCN(c2ccc(NC(=O)c3ccc(C#N)cc3F)cc2Cl)CC1 | 1 | 1 | -0.3 | -7 | i | 4.3 | 4 | 4 | 6.6 | -8
46 | CC(=O)Nc1cccc(/C(C)=N/NS(=O)(=O)c2ccccc2)c1 | -4 | 1 | -2.7 | -12 | i | -1.1 | x | -2 | -4.0 | 4
47 | N/C(=N\OC(=O)c1cccc2ccccc12)c1ccncc1 | -4 | 1 | -0.4 | -3 | i | -1.5 | -4 | 4 | 20 | -7
48 | COC(=O)c1[nH]c2ccccc2c1NC(=O)C(C)N1CCN(C(=O)c2ccco2)CC1 (stereo not drawn) | x | x | x | 7 | x | -1.5 | -9 | 5 | x | 2
49 | O=C(CN1C(=O)NC2(CCCCCC2)C1=O)c1ccc(OC(F)F)cc1OC(F)F | 7 | -1 | -3.5 | 2 | i | -2.6 | -5 | 4 | -3.4 | 1
50 | CN=C1SC(CC(=O)Nc2c(C)cccc2C)C(=O)N1/N=C/c1cccs1 (stereo not drawn) | 7 | -1 | 0.3 | 0 | i | -2.8 | 1 | 2 | 0.0 | -8
51 | CSc1nc(Oc2ccc(=O)[nH]n2)nc(N(C)C)n1 | x | x | x | -3 | x | 5.8 | -2 | 0 | x | -1
52 | O=C(CSc1ncn[nH]1)N1N=C(c2ccc(Cl)cc2)CC1c1ccco1 (stereo not drawn) | -20 | -28 | -1.9 | -2 | i | 1.4 | 3 | -3 | 5.9 | -9
53 | CCCCN1C(=S)SC(C)(C)C1/[N+]([O-])=C/c1ccc(S(=O)(=O)NC)cc1 (stereo not drawn) | 2 | -5 | -1.0 | -13 | i | 1.5 | 0 | 0 | 0.5 | -10
54 | Cc1noc2ncc(C(=O)c3cc(F)ccc3O)cc12 | x | x | x | -4 | x | 6.5 | -1 | -11 | x | -3
55 | Cc1ccc(C)c(NC(=O)C2CCCN(S(=O)(=O)c3c(C)noc3/C=C/N(C)C)C2)c1 (stereo not drawn) | 4 | 0 | -0.6 | -6 | i | 4.9 | -6 | -14 | 3.4 | -4
56 | COc1ccc(-c2cc(-c3ccccc3)n[nH]2)c(O)c1 | -57 | -74 | -25 | -3 | i | -4.2 | x | 4 | 13 | 10
57 | Fc1ccccc1Nc1ncnc2c1nnn2Cc1ccccc1 | 3 | 1 | -0.1 | 3 | i | -6.4 | -1 | 3 | 2.3 | -8
58 | COc1ccccc1CNC(=O)C1CCCN(c2cnccn2)C1 (stereo not drawn) | 17 | 13 | -0.4 | 6 | i | 1.3 | -5 | -4 | -3.6 | -8
59 | Cc1cc(NC(=O)CNC(=O)C2CCCCC2)no1 | 13 | 3 | -1.1 | x | i | x | 3 | x | 1.6 | -10
